# KCNQ2 inh = KCNQ2 potassium channel inhibitors, primary screen, cell-based, CHO-K1, FluxOR thallium flux, B-score (AID 2156) | Potassium voltage-gated channel subfamily KQT member 2 (Rattus norvegicus), O88943 | 20 min; hits give low values; only compounds with negative scores are shown here; some inactives read as strong as hits | B-score at 10 µM | actives 1.1% (n = 310,000);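 active means fluorescence ratio B-score at most minus 3 library SDs, with starting brightness B-score within 2 library SDs, cut at about -5.5 in these data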
# Target sequence (O88943 whole entry, looked up): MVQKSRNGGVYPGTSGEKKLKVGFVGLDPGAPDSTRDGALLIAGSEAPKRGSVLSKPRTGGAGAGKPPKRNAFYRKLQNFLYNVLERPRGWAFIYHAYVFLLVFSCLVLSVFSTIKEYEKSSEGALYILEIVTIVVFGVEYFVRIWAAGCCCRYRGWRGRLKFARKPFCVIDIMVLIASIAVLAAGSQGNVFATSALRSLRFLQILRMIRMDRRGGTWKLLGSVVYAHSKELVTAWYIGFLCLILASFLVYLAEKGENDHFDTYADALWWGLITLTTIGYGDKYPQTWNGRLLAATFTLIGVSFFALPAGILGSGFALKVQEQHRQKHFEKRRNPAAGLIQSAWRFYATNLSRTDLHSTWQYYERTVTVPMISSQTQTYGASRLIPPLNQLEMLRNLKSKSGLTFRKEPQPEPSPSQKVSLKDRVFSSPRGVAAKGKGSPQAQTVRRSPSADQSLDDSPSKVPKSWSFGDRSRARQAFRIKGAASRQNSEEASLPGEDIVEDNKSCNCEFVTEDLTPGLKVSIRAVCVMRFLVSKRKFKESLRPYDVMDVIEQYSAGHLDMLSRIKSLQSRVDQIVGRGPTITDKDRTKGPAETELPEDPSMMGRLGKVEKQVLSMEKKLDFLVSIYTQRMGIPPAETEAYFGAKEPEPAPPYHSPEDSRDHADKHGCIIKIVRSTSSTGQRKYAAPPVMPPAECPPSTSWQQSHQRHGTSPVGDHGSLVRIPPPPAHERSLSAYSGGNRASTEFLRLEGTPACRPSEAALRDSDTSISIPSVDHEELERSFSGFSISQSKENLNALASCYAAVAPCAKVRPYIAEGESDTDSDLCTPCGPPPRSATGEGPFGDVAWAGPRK
# KCNQ2 inh baseline = further read-out of KCNQ2 inh, marked with its call; B-score; measured here: initial fluorescence intensity artifact check;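 brightness before thallium and not channel activity; 0 = typical well and far values either way flag optical interference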
# An asterisk follows results filed as active; i = inactive. Only part of the results is shown, so the mix of outcomes need not match the whole.
KCNQ2 inh,KCNQ2 inh baseline,mol
i,-1.12,CC1=C(C(=O)Nc2ccccc2C(F)(F)F)C(c2ccc(C)s2)NC(=S)N1 (stereo not drawn)
i,0.99,COc1ccc2oc(=O)c(-c3cn4ccc(C)cc4n3)cc2c1
i,-0.36,Cc1ccc(OCc2cc(C(=O)N3CCCCCCC3)no2)cc1C
i,0.79,CC(=O)Oc1cccc(C(=O)Nc2cccc(C(=O)Nc3ccccc3C(=O)O)c2)c1
i,0.52,C=CCn1c(SC/C=C/c2ccccc2)nnc1-c1sc(N)nc1C
i,0.87,c1coc(C2Nc3ccccc3-c3nc4ccccc4n32)c1 (stereo not drawn)
i,-1.72,CN(CC(=O)NCCCN1CCOCC1)S(=O)(=O)c1ccc(F)cc1
i,-0.56,O=[N+]([O-])c1cc(S(=O)(=O)c2ccc(N3CCCCC3)c([N+](=O)[O-])c2)ccc1N1CCCCC1
i,-0.15,COC(=O)Cc1cc(=O)n(-c2ccccc2)[nH]1
i,0.42,COC(=O)CSc1nc(N)c(C#N)c(-c2ccc(O)cc2)c1C#N

# Next section:
KCNQ2 inh,KCNQ2 inh baseline,mol
i,-0.73,CCN(CC)CCn1c2ccccc2c2cnc(N)c(C#N)c21
i,0.65,COc1ccc(N2CCN(S(=O)(=O)CCNC(=O)C3CC3)CC2)cc1
i,2.07,COc1ccc(CCC(=O)NNC(=S)Nc2cccc(C(C)=O)c2)cc1
i,-0.35,CSCC[C@H](NC(=O)OC(C)(C)C)C(=O)NCC1CCC(C(=O)O)CC1 (stereo partly drawn)
i,-2.13,COCCCn1cnc2c(c1=O)c1nc3ccccc3nc1n2-c1ccc(C)cc1
i,-0.93,COc1cc2c(cc1OC)C(COc1ccccc1OC)N(C(=O)c1ccco1)CC2 (stereo not drawn)
i,-0.24,Cc1ccc(S(=O)(=O)NCc2ccccc2)cc1C(=O)NCC1CCCO1 (stereo not drawn)
i,2.9,O=C(/C=C/Nc1ccccc1Oc1ccccc1)c1ccco1
i,-0.25,COc1ccccc1C(CC(=O)O)c1ccc2c(c1)OCO2 (stereo not drawn)
i,-2.07,Cc1cc(C(=O)NCc2ccco2)cs1

# More structures:
KCNQ2 inh,KCNQ2 inh baseline,mol
i,0.02,CCN(Cc1ccncc1)C(=O)C1CCC(=O)N(Cc2ccc(Cl)cc2)C1 (stereo not drawn)
i,1.6,Cc1c(O)ccc2c3c(c(=O)oc12)CCC(C)C3 (stereo not drawn)
i,0.96,C=CCN(C(=O)CCC(=O)O)C1CC(=O)N(c2ccc(OCCC)cc2)C1=O (stereo not drawn)
i,0.09,CC(C)(C)OC(=O)NNC(=S)NCc1ccc(Cl)cc1
i,0.4,CC(=O)OC(C)(C)C1Cc2cc3ccc(=O)oc3cc2O1 (stereo not drawn)
-7.14*,0.04*,Cc1ccc(CNS(=O)(=O)c2ccc(C(C)(C)C)cc2)n1C
i,-0.25,CS(=O)(=O)c1ccc(Cl)c(NC(=O)COC(=O)c2ncc(Cl)c(Cl)c2Cl)c1
i,-1.27,C=CCn1c(SCc2nc3ccccc3[nH]2)nnc1-c1cccc(OC)c1
i,-1.2,CN1C(=O)/C(=C2\SC(=S)N(NC(=O)c3cccnc3)C2=O)c2ccccc21
i,1.36,Cc1cccc2sc(NC(=O)c3cccc(S(=O)(=O)N4CCc5ccccc54)c3)nc12

# Next section
KCNQ2 inh,KCNQ2 inh baseline,mol
i,-0.34,COc1ccc(/C=C2\CCCC3C2=NC(=S)NC3c2ccc(OC)cc2)cc1 (stereo not drawn)
i,0.11,O=C(NCCC1=CCCCC1)C1CCN(S(=O)(=O)N2CCOCC2)CC1
i,-0.12,CC1CCC(NC(=O)N(CCCl)N=O)CC1 (stereo not drawn)
i,0.5,COc1cccc(C2SCC(=O)N2c2ccc(C)cc2)c1OC (stereo not drawn)
i,0.14,O=C(Nc1c(Cl)cc(Cl)cc1-c1nc2ccccc2s1)c1ccc(Br)o1
i,-0.77,O=C(NCCSc1c(-c2ccccc2)[nH]c2ccccc12)c1cc2ccccc2oc1=O
i,0.23,Cc1cc(C)c2nc(-c3ccccn3)cc(C(=O)Nc3ccc(S(=O)(=O)Nc4cc(C)on4)cc3)c2c1
i,-0.03,O=C(CN1CCN(Cc2ccc(F)cc2Cl)C1=O)NCCc1ccc(Cl)cc1
i,1.81,COc1ccccc1-c1cc(C(=O)Nc2ccccc2SC)no1
i,0.59,CC/C(=N\NC(=O)CSc1ncccn1)c1ccc2c(c1)OCCO2

# (listing goes on)
KCNQ2 inh,KCNQ2 inh baseline,mol
i,-1.21,Cn1c2ccccc2c2c(C(=O)NCC3CCCO3)cn(C3CCCC3)c(=O)c21 (stereo not drawn)
i,-0.75,CCN1CCN(CCCNC(=O)c2cc3c(=O)[nH]c4ccccc4c3s2)CC1
i,-0.36,O=C(/C=C/c1ccco1)NC(=S)Nc1cccc(-c2nc3ccccc3s2)c1
i,-0.89,Cc1cccc(NC(=O)CC2C(=O)NCCN2C(=O)Nc2ccc(Cl)cc2)c1 (stereo not drawn)
-10.2*,-0.52*,N#CCCN/N=C(/Cc1nc2ccccc2[nH]1)c1ccc(Cl)cc1
i,-0.12,CCOC(=O)CSC1=C(C#N)C(c2ccccc2F)C(C(C)=O)=C(C)N1 (stereo not drawn)
-6.5*,-0.24*,O=C(CSc1nc2ccccc2s1)N1c2ccccc2Sc2ccc(C(F)(F)F)cc21
i,-0.62,CCc1nc2oc3ccccc3c(=O)c2c(=O)n1-c1ccccc1
i,1.37,O=C(c1cnn(-c2ccccc2)c1)c1ccccc1O
i,0.11,COc1ccc(NC(=O)Cn2nnc(-c3ccccc3NC(=O)C3CC3)n2)cc1

# Another view of part of the listing above.
> C=CCn1c(SC/C=C/c2ccccc2)nnc1-c1sc(N)nc1C
  KCNQ2 inh: i | KCNQ2 inh baseline: 0.52

> c1coc(C2Nc3ccccc3-c3nc4ccccc4n32)c1 (stereo not drawn)
  KCNQ2 inh: i | KCNQ2 inh baseline: 0.87

> CN(CC(=O)NCCCN1CCOCC1)S(=O)(=O)c1ccc(F)cc1
  KCNQ2 inh: i | KCNQ2 inh baseline: -1.72

> O=[N+]([O-])c1cc(S(=O)(=O)c2ccc(N3CCCCC3)c([N+](=O)[O-])c2)ccc1N1CCCCC1
  KCNQ2 inh: i | KCNQ2 inh baseline: -0.56

# Four records picked at random from those above, as already listed:
KCNQ2 inh,KCNQ2 inh baseline,mol
i,-0.34,COc1ccc(/C=C2\CCCC3C2=NC(=S)NC3c2ccc(OC)cc2)cc1 (stereo not drawn)
i,-0.24,Cc1ccc(S(=O)(=O)NCc2ccccc2)cc1C(=O)NCC1CCCO1 (stereo not drawn)
i,1.37,O=C(c1cnn(-c2ccccc2)c1)c1ccccc1O
i,0.96,C=CCN(C(=O)CCC(=O)O)C1CC(=O)N(c2ccc(OCCC)cc2)C1=O (stereo not drawn)

# Carrying on.
KCNQ2 inh,KCNQ2 inh baseline,mol
i,1.36,CC(c1ccc(Cl)cc1)n1c(-c2ccc3ccccc3n2)n[nH]c1=S (stereo not drawn)
i,-0.26,O=C(NC1CCCCC1)N1CCSC1=Nc1ccccc1
i,-1.72,CCc1ccc(OCCNC(=O)c2ccccc2SCc2ccccc2)cc1
i,0.41,O=C(CSc1nncs1)Nc1ccc2c(c1)OCO2
i,-0.59,CCCCCCCC(=O)OCC(O)CO (stereo not drawn)
i,7.55,CC(=O)Nc1nc2n(n1)C(c1ccc(F)cc1)C=C(c1ccccc1)N2 (stereo not drawn)
i,1.48,FC(F)(F)COc1nc(N2CCCCC2)nc(N2CCNCC2)n1
i,2.16,C/C(=N/NS(=O)(=O)c1ccc(Br)cc1)c1ccc(NC(=O)c2ccc(C)o2)cc1
i,1.31,O=C(CCSc1nc(-c2ccc3c(c2)OCO3)cc(C(F)(F)F)n1)NCc1ccccc1
i,1.27,Cc1cc(C)n(-c2ccc(-n3ccnc3)nn2)n1

# Next section:
KCNQ2 inh,KCNQ2 inh baseline,mol
i,-1.38,Cc1cccc(NC(=O)Nc2c(C)[nH]c(=O)[nH]c2=O)c1C
i,2.75,Clc1ccc(Nc2nc3cccnc3s2)cc1
i,-0.73,COc1ccc(N2C(=O)CSC2c2ccc([N+](=O)[O-])cc2)cc1 (stereo not drawn)
i,0.61,C=CCC1(NC(C)c2ccccc2)CCCCC1 (stereo not drawn)
i,1.26,CC(=O)Nc1cc(-c2ccc(F)cc2)[nH]n1
i,0.81,Cc1cc(C)c2sc(N(CCCN(C)C)C(=O)CN3C(=O)c4ccccc4C3=O)nc2c1
i,0.26,Cc1cccc(NC(=S)NN2CCN(C)CC2)c1C
i,-0.04,Cc1ccc(NC(=O)c2nc[nH]c2C(=O)NCC(=O)OC(C)(C)C)cc1
i,0.58,O=C(CSc1nc(-c2ccc(F)cc2)nc2ccc(F)cc12)Nc1cccc(C(=O)O)c1
i,0.66,Cn1nnnc1SCC(=O)NCc1cccc(C(=O)O)c1

# Remaining list, next part.
KCNQ2 inh,KCNQ2 inh baseline,mol
i,-0.48,CCCCCCc1nnc(N)s1
i,0.53,O=C1c2ccccc2C(=O)N1CC(=O)N1c2ccccc2Sc2ccc(C(F)(F)F)cc21
i,2.49,O=C(NCc1cccs1)c1ccc(S(=O)(=O)N2CCCCC2)cc1
i,-0.21,Cc1ccc(OCC(=O)Nc2ccc(F)cc2)cc1C
i,-1.45,CC(C)SCc1cc(N2CCCC2)nc(-c2ccccc2)n1
i,-1.14,Cn1c(N2CCCC2)nc2c1c(=O)n(Cc1ccc(F)cc1)c(=O)n2C
i,2.26,COC(=O)c1cc2c(cc1Cl)N1CCCCCC1=NS2(=O)=O
i,-1.12,Cc1ccc(S(=O)(=O)NCC(=O)N(CC(=O)NC(C)(C)C)Cc2cccs2)cc1
i,0.88,Cc1cc2nnc(SC(C)C#N)n2c2ccccc12 (stereo not drawn)
i,0.03,CCn1c(NC(=O)c2cccs2)c(-c2cccs2)c(=O)c2ccccc21

# Next section.
KCNQ2 inh,KCNQ2 inh baseline,mol
i,-0.67,Cc1ccc(C)c(Nc2ncccc2C(=O)NCc2cccs2)c1
-9.41*,0.01*,CCOC(=O)N1CCC(N(CCOC)C(=O)Nc2ccc(Cl)c(Cl)c2)CC1
i,0.04,CCOC(=O)c1cccc(NC(=O)CSc2nnc(COc3ccccc3)n2CC)c1
-7.42*,-0.31*,CCN(CC)C(=O)c1cc2c(=O)c3cc(Cl)ccc3oc2nc1C
i,-3.02,COc1cc(NC(=O)CSc2nc(=O)n(CCN3CCOCC3)c3c2CCCC3)cc(OC)c1
i,0.56,CCOC(=O)c1ccc(NC(=O)c2n[nH]c(=O)c3ccccc23)cc1
i,-0.33,CC1CN(Cc2nc3c(c(=O)[nH]c(=O)n3C)n2CCCc2ccccc2)CC(C)O1 (stereo not drawn)
i,0.61,COc1ccc(N(CC(=O)N/N=C/c2ccc(C(=O)O)cc2)S(=O)(=O)c2ccc(NC(C)=O)cc2)cc1
i,1.42,O=C(Oc1csc(=S)n1C(=O)c1ccccc1)c1ccccc1
i,-0.07,O=C(Nc1ccccc1-c1ccccc1)C1CCCC1

# Later entries.
KCNQ2 inh,KCNQ2 inh baseline,mol
i,-0.71,COc1cc(/C=C/C(=O)O)cc(S(=O)(=O)Nc2ccc3c(c2)CCC3)c1OC
i,0.51,CN(CC(=O)Nc1c(Cl)cccc1Cl)C(=O)CCc1nc2sc3c(c2c(=O)[nH]1)CCCC3
i,0.98,CCOc1ccc(-c2cc(C(=O)NCCCN3CCN(CC)CC3)c3ccccc3n2)cc1
i,0.84,O=C(Nc1ccc2ccccc2n1)Nc1cccs1
i,-0.34,CCOC(=O)C1=C(CSc2nc(-c3ccccc3)ccc2C#N)OC(N)=C(C#N)C1c1ccccc1 (stereo not drawn)
i,-1.35,C=C1CCN([C@@H](CC(C)C)C(=O)NN2CCOCC2)S(=O)(=O)c2ccccc21
i,1.66,COc1ccccc1CSc1nc2ccccc2[nH]1
i,0.28,S=C(c1c[nH]c2ccc(Br)cc12)N1CCOCC1
i,1.06,CCCCOC(=O)c1nnc(-c2ccc(Cl)cc2)o1
i,-1.18,CC(NC(=O)/C(C#N)=C/c1cn[nH]c1-c1ccccc1)c1ccccc1 (stereo not drawn)

# Other results follow:
KCNQ2 inh,KCNQ2 inh baseline,mol
i,0.58,COc1ccc(NC(=O)c2cccc(S(=O)(=O)N3CCCCC3)c2)c(OC)c1
i,1.57,COc1ccccc1NS(=O)(=O)c1ccc(C)c(C(=O)NCC(c2ccco2)N(C)C)c1 (stereo not drawn)
-6.51*,1.46*,Cc1c(CCOC(=O)C23CC4CC(CC(C)(C4)C2)C3)sc[n+]1CC(=O)c1ccccc1
i,1.5,Brc1ccc2c(c1)C(c1ccc(N3CCOCC3)cc1)=NNC(c1cccs1)=N2
i,0.24,COc1ccccc1C(=O)NCCC(=O)Nc1ccncc1
-6.42*,-0.78*,Cc1cc2oc(=O)cc(CN3CCc4ccccc43)c2cc1Cl
i,-0.36,O=C(COc1ccccc1Cl)NCCC1=CCCCC1
i,1.57,Cc1c(CC(=O)NCC(=O)NCC(=O)O)c(=O)oc2cc3c(cc12)CCC(C)(C)O3
i,0.52,O=C(NC1CCCCC1)c1cc(-c2ccccc2O)on1
i,0.07,CNC(=O)[C@@]1(Cc2ccccc2)C=C[C@@H](C)N1C(C)=O

# Additional compounds follow.
KCNQ2 inh,KCNQ2 inh baseline,mol
i,0.41,CCCn1nnnc1NCc1ccccc1Cl
i,-0.17,Cc1ccc(S(=O)(=O)N/N=C2/CC(c3ccccc3)Oc3ccccc32)cc1[N+](=O)[O-] (stereo not drawn)
i,-0.68,Nc1ccc(N=Nc2ccccc2)c2ccccc12
i,-0.44,O=C1C(C2=NC(C(=O)O)C3C(=O)N(c4ccc(Cl)cc4)C(=O)C23)=C(O)c2ccccc21 (stereo not drawn)
i,0.06,N#C/C(=C\c1ccco1)C(=O)Nc1ccc(S(N)(=O)=O)cc1
i,-3.11,O=C(NCc1cccs1)C1CCCN(S(=O)(=O)c2cnc[nH]2)C1 (stereo not drawn)
i,-0.27,Cc1cc(C)c(C#N)c(SCC(=O)Nc2ccccc2C(N)=O)n1
i,0.03,CCc1noc(C)c1C(=O)N1CCOCC1
i,1.31,N/C(CN1CCCCC1)=N\S(=O)(=O)c1cc(Cl)cc(Cl)c1
i,-0.46,CCNc1oc(COc2cccc(C)c2)nc1C#N
